Source: PubChem
ClpP mod – qHTS Assay for Activators of ClpP. ATP-dependent Clp protease proteolytic subunit (Bacillus subtilis (strain 168)), P80244. purified B. subtilis ClpP, FRET peptide cleavage, 20 min. Potency, µM (series often up to 57.5 µM), for the others: top-dose activity change, negative = active. actives 1.9% (n = 340,000); active = well fitted falling curve with a large enough effect; inconclusive = small, poorly fitted or top-dose-only effect; inactive = no such curve, though single readings can be large or run the other way; note: potency is the fitted concentration of half-maximal effect; the source files actives as falling curves though it sought activators and does not explain the sign; nearly all actives have a fitted effect of over 65% in size; many hits overshoot -100%
Target sequence (P80244 whole entry, looked up): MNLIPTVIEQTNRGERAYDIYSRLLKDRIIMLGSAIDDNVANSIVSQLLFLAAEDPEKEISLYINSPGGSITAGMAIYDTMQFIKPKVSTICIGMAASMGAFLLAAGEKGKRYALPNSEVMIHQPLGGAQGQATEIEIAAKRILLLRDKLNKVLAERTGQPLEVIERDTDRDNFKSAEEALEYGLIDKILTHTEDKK
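Purified B. subtilis ClpP, 10 microg/mL final in Tris/HCl pH8 with KCl, BSA, glycerol and Tween-20, cleaved an Abz/nitrotyrosine-quenched decapeptide. Fluorescence (ex 320, em 430) was read at 0 and 20 min at room temperature. Delta was normalized to 5.8 microM ADEP and DMSO/no-enzyme controls.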
gsp agonist – gsp mutant agonism. gsp mutant cells, cAMP HTRF, 30 min; control for the full effect not named in the record. Potency, µM (doses to about 76.9 µM), for the others: at the highest dose activation (cAMP increase), hits mostly activators. actives 0.13% (n = 340,000). AID 624287; active = well fitted activation curve with a large enough effect; inconclusive = small, poorly fitted or top-dose-only effect, or another doubt; inactive = no such curve, though single readings can be large or run the other way; cell line not stated here;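 note: phosphodiesterase inhibitor Ro 20-1724 added with compounds to block cAMP breakdown; potency is the fitted concentration of half-maximal effect; nearly all actives have a fitted effect of over 60% in size; about a fifth of the inactives were tested at one dose only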
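Cells stably selected in G418 were plated at 2000/well, grown 16-24 hr, then given compounds in DMSO with the PDE inhibitor […] (300 uM solution added) for 30 min at 37C; cAMP was read by HTRF.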
TRPML1 inh – human mucolipin-1 channel inhibition; TRPML1-inducible cells, Ca2+ dye fluorescence, FDSS; active compounds read low; inhibition of EC80 agonist-evoked calcium signal; activity change, negative = inhibition, % (test concentration not listed); actives 0.02% (n = 390,000); AID 624415; in the data active means activity change below about -50%; inconclusive means about -30% to -50%; inactive means above about -30%;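 note: stimulus is agonist 54-4 at its EC80 concentration; % is set by controls: 0 for no effect and ±100 for the full control effect; compound concentration not given in the record; the text of the record puts the active cut at -80%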
Target sequence (Q9GZU1 whole entry, looked up): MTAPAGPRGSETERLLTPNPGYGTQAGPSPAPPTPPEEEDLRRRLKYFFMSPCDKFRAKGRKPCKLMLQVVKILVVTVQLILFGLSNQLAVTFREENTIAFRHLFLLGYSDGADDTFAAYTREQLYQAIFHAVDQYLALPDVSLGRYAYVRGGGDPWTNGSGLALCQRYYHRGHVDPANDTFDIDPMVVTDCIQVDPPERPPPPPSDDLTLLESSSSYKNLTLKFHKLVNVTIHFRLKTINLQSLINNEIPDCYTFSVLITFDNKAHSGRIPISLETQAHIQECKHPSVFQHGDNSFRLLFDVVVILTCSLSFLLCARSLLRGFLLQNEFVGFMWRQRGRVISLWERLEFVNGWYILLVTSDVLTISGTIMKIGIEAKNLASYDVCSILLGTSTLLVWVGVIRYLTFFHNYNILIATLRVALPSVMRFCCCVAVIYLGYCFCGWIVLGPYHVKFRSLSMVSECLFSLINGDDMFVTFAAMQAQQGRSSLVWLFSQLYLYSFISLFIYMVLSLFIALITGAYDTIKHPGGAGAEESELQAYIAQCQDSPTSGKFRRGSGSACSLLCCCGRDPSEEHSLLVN
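Tet-induced TRPML1-DL cells loaded with Ca8 no-wash calcium dye were read kinetically on FDSS. Compound addition was followed by EC80 agonist 54-4 (4 uM final); inhibition was read over 110 s.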
TRPML1 ag – human mucolipin-1 channel agonism; AID 624414; TRPML1-expressing cells, Ca2+ dye fluorescence, FDSS; host cell line not named in the record; reference of the full effect not given here; actives 0.12% (n = 410,000); activation, % (no concentration beside the values); in the data active = activation above about 50%; inconclusive = about 30% to 50%; inactive = below about 30%; note: 0% is about no effect; the text of the record puts the active cut at 80%
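Calcium fluorescence on an FDSS kinetic reader gave the read-out. Tet-induced TRPML1-DL cells were plated overnight, dye-loaded (Ca8 with quencher, 45-90 min, room temperature, dark), then read 110 s after compound addition, and again 110 s after 4uM final 54-4 (EC80).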
gsp antag – antagonists of gsp mutant (McCune-Albright syndrome) | gsp-mutant cells, cAMP HTRF, 30 min; control for the full effect not named in the record | Potency, µM (doses to about 76.9 µM), for the others: at the top dose activity change, negative = inhibition, usual class: inhibitors | actives 0.4% (n = 340,000) | AID 624288; active = falling curve of any shape with a large fitted effect; inconclusive = falling curve, mostly with a smaller effect; inactive = flat or rising curve; cell line not stated here;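 note: intracellular cAMP measured with PDE inhibitor Ro 20-1724 present during compound exposure; potency is the fitted concentration of half-maximal effect; % is set by controls: 0 for no effect and ±100 for the full control effect; nearly all actives have a fitted effect of over 65% in size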
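HTRF cAMP measurement after 30 min RT detection following 30 min, 37C compound treatment alongside […] (added as 300 uM solution) in G418-selected cells seeded at 2000/well and grown 16–24 h.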
Menin MLL FP FL – inhibitors of human menin-MLL interaction, wild-type MLL peptide; 290,000 tested, under 10 active; Fluorescence polarization, fluorescein-MLL peptide displacement from menin; FP activity change, % at 61.4 µM; inconclusive = falling polarisation curve, or a change in total fluorescence; inactive = total fluorescence flat and polarisation flat or rising; no compound was filed as active; the % refers to the polarisation; negative = inhibition;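 note: % of control where 0% means no effect; inhibitors lower the polarisation; unlabelled MLL peptide was the positive control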
An asterisk follows results filed as active; ? = inconclusive; . = no result given; & = joins results of further samples; [ ] = another dose, or the depositor's remark.

cpd	smiles	ClpP mod	gsp agonist	TRPML1 inh	TRPML1 ag	gsp antag	Menin MLL FP FL
1	COc1cc(C(=O)NCCNc2nc3cc(C)ccc3cc2C#N)cc(OC)c1OC	4.1%	-7%	2	-1.4	-2%	?
2	Cc1ccsc1CN(C(=O)c1oc2ccc(Br)cc2c1C)C1CCS(=O)(=O)C1 (configuration not stated)	0.8%	.	-10	1.0	.	.
3	CCOc1cccc(CNc2ccc(O)cc2)c1OCc1ccccc1Cl	0.0%&-2.1%	-14%	58&14	0.0&0.9	-18%	-0.8
4	Cc1[nH]c2ccc(C(=O)NC3CCCC3)cc2c1C	-9.0%	-10%	-4	0.2	2%	.
5	N/C(=N\OC(=O)c1ccc(Cl)cc1)c1[nH]ncc1Br	-1.4%	-6%	5	0.1	5%	4.7
6	CC(C)C1Cc2c(sc3c2c(=O)n(-c2ccccc2)c2n[nH]c(=S)n32)CO1 (configuration not stated)	-1.2%	4%	-12	-0.2	-24%	-0.2
7	CCN(C(=O)CCS(=O)(=O)c1ccc(Br)cc1)c1ccc2c(c1)OCO2	2.5%	-46%[inhibitor]	10	-0.5	-2%	0.7
8	Cn1nc(C(F)(F)F)cc1-c1ccc(/C=C(\C#N)C(=O)c2cccc(C(F)(F)F)c2)s1	.	3%[15.4 µM]	10	2.1	-3%	?
9	O=C(CN1CCN(S(=O)(=O)c2ccc(F)cc2)CC1)NCC1(N2CCOCC2)CCCCC1	0.6%	-1%[15.4 µM]	15	0.3	7%	.
10	O=C(COc1cc(Cl)ccc1Cl)Nc1ccc2c(c1)CCC2	1.2%	-4%[15.4 µM]	12	-0.5	12%	-2.8
11	CC(NC(=O)C(=O)NCCc1c[nH]c2ccccc12)c1ccccc1 (configuration not stated)	0.2%	-9%	-11	0.8	7%	30
12	Cc1cc(C)cc(NC(=O)CSc2nccn2-c2ccccc2)c1	-0.4%	.	-8	2.1	.	.
13	CCc1cccc(CC)c1NC(=O)COC(=O)Cc1ccsc1	-4.2%	-20%	-1	1.8	10%	-0.6
14	COc1ccc(/C=N/NC(=O)c2nnn(-c3nonc3N)c2C)cc1OC	-6.3%	-9%	11	-0.3	.	.
15	O=C1c2ccccc2C(=O)C1Cc1cccc2ccccc12	4.0%	?	1	1.0	7%	-1.6
16	COc1cc(Br)ccc1C1C(C(=O)Nc2ccc(C)cc2C)=C(C)Nc2nnnn21 (configuration not stated)	-2.1%	.	21	0.3	.	.
17	COc1ccc(Cl)cc1NC(=O)CN(C)C(=O)COc1ccccc1F	2.9%	-36%[inhibitor]	15	0.7	1%	6.4
18	O=C1Nc2ccccc2O/C1=C\c1c(F)cccc1Cl	5.0%	18%	4	-0.4	-5%	5.2
19	O=C(CSc1nnc(-c2ccccc2F)o1)Nc1cccc(C(F)(F)F)c1	-0.4%	.	-14	3.8	.	.
20	O=S(=O)([N-]c1nc2ccccc2nc1-[n+]1ccc(-c2ccncc2)cc1)c1ccccc1	.	12%[15.4 µM]	15	5.2	5%	?
21	COc1ccc(N(C(=O)c2snc(C(N)=O)c2N)C(C(=O)NCc2ccccc2)c2ccc(F)cc2)c(OC)c1 (configuration not stated)	.	-23%[15.4 µM]	-1	1.6	-15%	0.9
22	CCC(=O)Nc1cccc(-n2nnnc2SCC(=O)NCc2ccco2)c1	-1.7%	-15%	3	0.2	-1%	2.0
23	O=C(c1noc2c1CCCC2)N1CCCC(N2CCN(c3ccccc3F)CC2)C1 (configuration not stated)	-0.3%	19%	0	-0.9	-6%	.
24	CCc1onc(C)c1C(=O)Nc1ccc2c(c1)OCO2	1.7%	4%	19	-0.4	6%	-1.3
25	CC(=O)C1=C(O)C(=O)N(c2ccccn2)C1c1ccc(Cl)cc1 (configuration not stated)	.	21%	12	-0.2	4%	-0.1
26	Cc1cccc(OCc2cc(=O)n3c(-c4ccccc4)csc3n2)c1C	-20%	.	-15	-0.4	.	.
27	C#CCSc1nc2sc3c(c2c(=O)n1-c1cccc(OC)c1)CCN(C(C)=O)C3	-7.4%	.	16	1.7	.	.
28	Cc1ccc(CNS(=O)(=O)c2cn(C)c(=O)n(C)c2=O)cc1	-0.8%	-47%[inhibitor]	-6	0.1	-3%	.
29	CC(C)c1nc(SCC(=O)Nc2cccc(S(N)(=O)=O)c2)n[nH]1	2.2%	?	22	3.8	-7%	1.0
30	CC(=O)N1CCCC1c1nc2ccccc2n1Cc1ccccc1 (configuration not stated)	2.4%	.	-5	-0.7	.	.
31	COc1ccc(O)c(C(c2c(C)[nH][nH]c2=O)c2c(C)[nH][nH]c2=O)c1	.	-26%[15.4 µM]	14	0.1	5%	0.5
32	N#C/C(=C/c1ccc(N2CCCC2)c([N+](=O)[O-])c1)c1nc2ccccc2[nH]1	-0.3%	-17%	10	1.8	-11%	9.9
33	CCOC(=O)N1CCC(N2CC34C=CC(O3)C(C(=O)Nc3ccc(C(C)C)cc3)C4C2=O)CC1 (configuration not stated)	2.4%	-3%	3	1.6	1%	2.7
34	O=C(COC(=O)CCN1C(=O)c2cccc([N+](=O)[O-])c2C1=O)NCc1ccccc1	-0.5%	13%	-12	-0.1	?	-3.4
35	COc1ccc(CNC(=O)C2CCCN(C(=O)Nc3ccc(OC)cc3)C2)cc1 (configuration not stated)	.	23%	0	12	10%	-8.2
36	CC1Cc2cc(S(=O)(=O)CCC(=O)Nc3ccc(F)cc3)ccc2N1C(=O)C1CC1 (configuration not stated)	-0.7%	.	-13	-0.4	.	.
37	FC(F)(F)c1ccc(N/N=C/c2cccnc2)nc1	.	10%[15.4 µM]	1	0.3	8%	3.2
38	C=CCSC(=C(C#N)C#N)c1cc2c([nH]1)CCCC2	-19%	17%	-1	-0.1	-17%	7.6
39	O=C(Nc1ccc2c(c1)OCO2)Nc1cnccn1	-11%	13%	-11	0.3	13%	3.9
40	COc1cccc(CNC(=O)C2CCN(S(=O)(=O)c3ccc4c(c3)CC(C)N4C(C)=O)CC2)c1 (configuration not stated)	-0.1%	?	-2	-1.0	1%	-1.2
41	Cn1cc(SCC(=O)N2CCOCC2)c2ccccc21	-1.2%	-23%	5	-0.4	5%	7.1
42	CC1CCN(CC(=O)Nc2ccc(S(=O)(=O)NC3CC3)cc2)CC1	-0.4%	-31%[inhibitor]	-1	0.0	8%	3.1
43	C/C(=N\NC(=O)c1nonc1N)c1cccs1	0.9%	6%	34	0.2	-17%	-0.6
44	COc1ccc(Cn2c(C(C)C)nc3sc4ccccc4c(=O)c3c2=O)cc1	.	13%	-11	-0.3	-5%	-2.9
45	O=C1CC(c2ccccc2)Oc2cc(O)cc(O)c21 (configuration not stated)	0.5%	.	.	.	-5%	0.7
46	COc1cc(S(=O)(=O)NC2CCCC2)ccc1Cl	1.1%	-12%	-25	0.3	9%	2.4
47	CCOC(=O)N1CCN(CCC(=O)c2ccc(Br)cc2)CC1	-1.3%	19%[15.4 µM]	?	-0.6	-9%	.
48	CS(=O)(=O)Nc1cccc(C2=NN(S(=O)(=O)c3ccc(F)cc3)C(c3cccs3)C2)c1 (configuration not stated)	1.1%	0%[15.4 µM]	-3	-0.4	?	?
49	O=C(c1cccc([N+](=O)[O-])c1)N1CCN(S(=O)(=O)N2CCCCC2)CC1	.	?	-1	0.1	5%	-0.9
50	Cc1ccc(NCc2nnc(SCCN3CCCCC3)n2CC2CCCO2)cc1Cl (configuration not stated)	0.6%	-14%	-7	-0.2	8%	2.4

The list goes on:
cpd	smiles	ClpP mod	gsp agonist	TRPML1 inh	TRPML1 ag	gsp antag	Menin MLL FP FL
51	COC(=O)[C@H](CCSC)NC(=O)N1CCC(C)CC1	0.3%	-41%[inhibitor]	0	0.9	10%	-1.2
52	COC(=O)C(C(=O)OC)C(CC(=O)c1ccc(Br)cc1)c1ccccc1 (configuration not stated)	0.5%	1%[15.4 µM]	1	3.1	-13%	.
53	C[C@@H](NCCc1ccc(O)cc1)[C@@H](O)c1ccc(O)cc1	0.9%	.	-3	-0.6	7%	4.5
54	Cc1cc(C)n(S(=O)(=O)c2ccccc2)n1	.	-8%[15.4 µM]	-1	-0.1	12%	2.1
55	O=C(NCC1CCCO1)C1CCN(C2CCN(C(=O)C3CCCCC3)CC2)CC1 (configuration not stated)	.	0%[15.4 µM]	8	0.1	12%	-2.3
56	CC(NC(=O)Cn1cc2c(n1)CCCCC2)c1ccccc1 (configuration not stated)	0.5%	15%	-1	0.4	-1%	4.0
57	Cc1cc(NC(=O)CNC(=O)C2CCCCC2)no1	0.2%	20%	0	0.6	5%	-1.8
58	CN1CCSc2ccc(C(=O)NCc3cccc(F)c3)cc21	4.7%	2%	-7	0.7	-16%	2.9
59	CCOC(=O)Cn1c(=O)oc2cc(S(=O)(=O)Nc3ccccc3F)ccc21	-5.7%	.	-10	-0.6	.	.
60	Cc1nn(CC(=O)NC2CCCC2)c(C)c1[N+](=O)[O-]	3.8%	-29%	-3	-0.7	-4%	.
61	CCOC(=O)Cn1c(=O)n(C2CCCCC2)c2nc(-c3ccc(OC)cc3)nc(C(N)=O)c21	?	.	2	1.4	.	.
62	COc1cccc(CNC(=O)COC(=O)c2ccc(Cl)s2)c1	.	21%	10	-0.4	4%	.
63	O=C(CCC(=O)OCc1ccc(C(=O)Oc2ccccc2)cc1)Nc1cccc2ccccc12	-29%	23%	3	-0.1	3%	0.2
64	COc1ccc(CNC(=O)COC(=O)CCOc2ccc(C)cc2)cc1OC	3.0%	-32%[inhibitor]	14	0.6	12%	.
65	CCCN(CCC)CCNC(=O)C1CC(=O)N(c2ccc(OC)cc2)C1c1ccc(OC)cc1 (configuration not stated)	-0.1%	27%	11	-0.2	12%	-2.8
66	Cc1ccc(NC(=O)[C@@H](CC(C)C)NC(=O)[C@@H]2Cc3ccccc3CN2)cc1	-2.3%	?	64	1.1	15%	-0.5
67	COc1cccc(NC(=O)C2CCCCC2)c1	0.4%	6%	-9	0.0	1%	-1.4
68	CNC(=S)NCCc1ccc(OC)c(OC)c1	-0.1%	-18%[15.4 µM]	-11	-0.4	1%	-1.2
69	COc1ccc(S(=O)(=O)N2CCC(C(=O)NC3CC3)CC2)cc1	.	5%	-15	-0.4	3%	-7.5
70	Cc1cccc(C(=O)Nc2cccc(OC(=O)c3cccc(C)c3)c2)c1	-5.0%	17%	1	1.9	-10%	1.5
71	CN(Cc1ccco1)C(=O)c1ccc(OC2CCN(Cc3ccccn3)CC2)cc1	0.1%	21%	37	-0.1	7%	.
72	O=C(C1=C[C@H](C2CCCCC2)C[C@H](OCc2ccc(CO)cc2)O1)N1CCOCC1	-0.2%	.	1	-0.7	-2%	-1.1
73	C/C=C/c1ccc(OCCOCCNCc2ccccc2)c(OC)c1	-1.7%	2%	-5	-1.2	8%	3.6
